Screens (PubChem BioAssay)
AF4-AF9 inh – blocks AF4 peptide binding to human AF9. P42568. AlphaScreen, biotin-AF4 peptide binding to FLAG-AF9. inhibition, % at 10 µM. actives 0.47% (n = 350,000). AID 651704;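 active means every replicate reaching a set inhibition limit, whatever the replicate mean, cut at about 25% in these data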;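 further: 0% = plate neutral control median and 100% = total signal loss; the record names both 10 and 1 µM as test concentration; the first replicate is given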
Target sequence (P42568 whole entry, looked up): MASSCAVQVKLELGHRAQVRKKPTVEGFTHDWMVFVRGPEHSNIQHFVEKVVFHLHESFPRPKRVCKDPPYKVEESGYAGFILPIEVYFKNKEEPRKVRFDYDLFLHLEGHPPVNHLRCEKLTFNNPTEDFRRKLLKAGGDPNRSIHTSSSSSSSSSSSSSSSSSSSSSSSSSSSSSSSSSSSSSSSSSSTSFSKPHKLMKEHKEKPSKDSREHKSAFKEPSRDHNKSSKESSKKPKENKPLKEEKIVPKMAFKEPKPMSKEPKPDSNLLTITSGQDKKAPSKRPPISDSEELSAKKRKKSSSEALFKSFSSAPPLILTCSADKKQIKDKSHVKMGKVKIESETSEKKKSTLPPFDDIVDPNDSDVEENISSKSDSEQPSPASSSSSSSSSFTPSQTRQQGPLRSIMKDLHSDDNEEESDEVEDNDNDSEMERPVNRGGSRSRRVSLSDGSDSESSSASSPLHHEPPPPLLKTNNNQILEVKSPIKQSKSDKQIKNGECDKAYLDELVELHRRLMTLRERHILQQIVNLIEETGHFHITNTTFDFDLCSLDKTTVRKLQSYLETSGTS
Ecoli rRNA inh – inhibits bacterial ribosomal RNA function over humanized ribosomes; E. coli WT GFP vs humanized-ribosome RFP mutants, fluorescence, 24 h; hits give low values; DMSO median 0, no signal -100; GFP signal change (wild-type ribosome), % (test concentration not listed); actives 1.6% (n = 350,000); AID 720706;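 active means significant combined selectivity score with lowered wild-type GFP, culture density cut under 30%, mutant RFP and density less affected; inactive means any of these conditions unmet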; further: one replicate is shown; some compounds called inactive have numbers as strong as hits
Ecoli rRNA inh OD600 – further read-out of Ecoli rRNA inh, marked with its call; OD600 change, %; measured here: OD600 growth;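 optical density of the mix in the first replicate; 0 = DMSO median and -100 = no signal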
Ecoli rRNA inh RFP – recorded beside Ecoli rRNA inh, whose call it bears; RFP signal change, %; measured here: RFP humanized mutant strains;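 first replicate; 0 = DMSO median and -100 = no signal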
Numbers without * were called inactive; & = joins results of further samples. This is a subset. The share of hits here may be higher or lower than overall.

SMILES | AF4-AF9 inh | Ecoli rRNA inh | Ecoli rRNA inh OD600 | Ecoli rRNA inh RFP
CC(C)NC(=O)C1(C)CSCC(=O)N1Cc1cccs1 (configuration not stated) | -0.6 | 12 | 9 | -1.5
COc1ccc(CN(C)C[C@@H]2Oc3ccc(NC(=O)NC(C)C)cc3CC(=O)N([C@H](C)CO)C[C@@H]2C)cc1 | -2.2 | 2 | 1 | -1.5
CN1CCn2cnc(C(=O)NCc3ccc(CNC(=O)OC(C)(C)C)cc3)c2C1=O | -3.8 | 5 | 5 | 0.6
Cc1nc(-c2cccc(NC(=O)c3ccc(Cl)c(S(=O)(=O)N4CCCC4)c3)c2)cs1 | -6.7 | -8 | -4 | 11
O=C(Cc1ccncc1)NCC[C@@H]1CC[C@@H](NC(=O)Nc2ccc(Cl)cc2)[C@H](CO)O1 | 1.7 | -2 | 1 | 0.1
C[C@@H]1CN([C@H](C)CO)C(=O)c2cc(-c3ccc(C#N)cc3)cnc2O[C@H]1CN(C)C(=O)c1cccnc1 | -2.0 | 1 | 11 | -1.3
O=C(C1CCC1)N1C[C@@H]2[C@H](c3ccccc31)[C@H](CO)N2C(=O)c1ccccc1 | -26 | 0 | 7 | -0.8
C[C@@H](c1ccccc1)N1C[C@@H](COCc2ccccc2)Oc2cc(N3CCC[C@H]3CO)ccc2S1(=O)=O | -1.4 | -4 | -16 | 1.3
O=C(CC1CC1)N1CC(=O)N2[C@H](C1)[C@H](c1ccc(C#Cc3ccccc3)cc1)[C@@H]2CO | -1.4 | -7 | -42 | 21
C[C@@H]1CN([C@@H](C)CO)C(=O)Cc2cc(NC(=O)CCN3CCOCC3)ccc2O[C@@H]1CN(C)CC1CCCCC1 | 0.2 | 0 | 6 | -2.8
CO[C@@H]1CN(C)C(=O)c2cc(NC(C)=O)ccc2OC[C@@H](C)N(Cc2nccs2)C[C@H]1C | -8.8 | 1 | 6 | -0.7
CN1C(=O)c2cc(NS(=O)(=O)c3ccc(Cl)cc3)ccc2OC[C@H]2O[C@@H](CC(=O)N3CCc4ccccc4C3)CC[C@H]21 | -2.4 | -6 | -6 | 5.8
C[C@H](CO)N1C[C@H](C)[C@H](CN(C)C(=O)c2ccccn2)Oc2ncc(-c3ccccc3F)cc2C1=O | 0.4 | 2 | 7 | 0.2
COc1ccccc1N1CCN(C(=O)c2ccc3ncsc3c2)CC1 | 0.5 | -5 | -7 | 0.5
COc1ccccc1S(=O)(=O)N[C@H]1CC[C@H](CCNC(=O)C2CCCCC2)O[C@@H]1CO | 2.1 | -4 | 4 | -1.3
COc1ccc(NC(=O)Nc2ccc3c(c2)C(=O)N([C@@H](C)CO)C[C@H](C)[C@H](CN(C)Cc2ccc4c(c2)OCO4)O3)cc1 | 2.6 | -2 | -12 | 2.6
O=C(Nc1cccc(F)c1)N1C[C@H]2[C@@H](c3ccccc31)[C@H](CO)N2C(=O)c1cccnc1 | 1.1 | 0 | 4 | 3.8
COCC#Cc1cnc2c(c1)C(=O)N([C@@H](C)CO)C[C@@H](C)[C@@H](CN(C)C(C)=O)O2 | -12 | 3 | 2 | -1.3
C[C@H](CO)N1C[C@H](C)[C@@H](CN(C)C(=O)c2ccccn2)Oc2ncc(C3=CCCCC3)cc2C1=O | -1.0 | 0 | -7 | -2.8
CCCCNC(=O)C1(C)CCCCN1C(=O)c1sccc1C (configuration not stated) | -1.6 | 12 | 16 | 0.9
C[C@@H]1CN([C@H](C)CO)C(=O)c2cccc(NC(=O)C3CCCCC3)c2O[C@H]1CN(C)C(=O)Nc1ccc(C(F)(F)F)cc1 | 0.0 | -3 | -4 | -2.1
C[C@H](CO)N1C[C@H](C)[C@H](CN(C)Cc2ccncc2)Oc2ccc(NC(=O)Nc3ccc(F)cc3)cc2C1=O | 0.7 | 1 | -2 | -2.5
C[C@H]1CN([C@@H](C)CO)C(=O)c2cc(NC(=O)Nc3cccc4ccccc34)ccc2O[C@@H]1CN(C)C(=O)Nc1ccc(C(F)(F)F)cc1 | -19 | -4 | 5 | -1.1
COc1cc(OC)cc(-c2c(Sc3ccccc3)c3cc(-c4ccc(OC)c(F)c4)ccc3n2C)c1 | -17 | 7 | 19 | -4.0
C[C@@H]1CN([C@@H](C)CO)C(=O)c2cccc(NS(=O)(=O)c3ccc(F)cc3)c2O[C@@H]1CN(C)S(C)(=O)=O | -2.6 | 1 | 1 | -3.8
CNC[C@@H]1OCCCC[C@H](C)Oc2ccc(NS(C)(=O)=O)cc2C(=O)N([C@@H](C)CO)C[C@@H]1C | -7.9 | 6 | 9 | -1.7
COCCN(C[C@H]1N[C@H](CO)[C@@H]1c1ccc(-c2cccc(F)c2)cc1)C(C)=O | 2.9 | -3 | 4 | 1.7
CC(=O)N1CCCC(c2cc(C(=O)Nc3ccccc3)no2)C1 (configuration not stated) | -1.2 | 3 | 20 | 9.5
CC1(C(=O)NS(=O)(=O)c2ccc(C#N)cc2)CCN1C(=O)C1CCCCC1 (configuration not stated) | 1.3 | 8 | 9 | -0.3
Cc1ccc(S(=O)(=O)N(C)C[C@H]2OCCCC[C@@H](C)Oc3ccc(NC(=O)Nc4ccccc4)cc3C(=O)N([C@H](C)CO)C[C@H]2C)cc1 | 0.3 | 0 | 13 | 0.9

Single records, as listed above. Order of screens: AF4-AF9 inh	Ecoli rRNA inh	Ecoli rRNA inh OD600	Ecoli rRNA inh RFP
`COCCN(C[C@H]1N[C@H](CO)[C@@H]1c1ccc(-c2cccc(F)c2)cc1)C(C)=O` reads 2.9	-3	4	1.7
`Cc1ccc(S(=O)(=O)N(C)C[C@H]2OCCCC[C@@H](C)Oc3ccc(NC(=O)Nc4ccccc4)cc3C(=O)N([C@H](C)CO)C[C@H]2C)cc1` reads 0.3	0	13	0.9
`COc1cc(OC)cc(-c2c(Sc3ccccc3)c3cc(-c4ccc(OC)c(F)c4)ccc3n2C)c1` reads -17	7	19	-4.0

(cont.)
SMILES | AF4-AF9 inh | Ecoli rRNA inh | Ecoli rRNA inh OD600 | Ecoli rRNA inh RFP
Cc1ccc(-c2cnc3c(c2)C(=O)N([C@@H](C)CO)C[C@H](C)[C@@H](CN(C)C(=O)Cc2cccnc2)O3)cc1 | -1.5 | 1 | 0 | 0.3
C[C@@H]1CN([C@@H](C)CO)C(=O)c2cc(NS(=O)(=O)c3ccc(F)cc3)ccc2O[C@@H](C)CCCCO[C@H]1CN(C)CC1CC1 | 1.8 | -4 | -6 | 3.4
COCC#Cc1cnc2c(c1)C(=O)N([C@H](C)CO)C[C@H](C)[C@H](CN(C)C(=O)CCN1CCCCC1)O2 | -3.0 | 8 | 11 | -4.9
Cc1cc2nc(-c3ccccc3)c(Cc3cccc(F)c3)n2c(C)c1Br | 3.4 | -11 | -6 | 1.7
C[C@H](CO)N1C[C@H](C)[C@@H](CN(C)Cc2ccc(C(=O)O)cc2)Oc2ccc(NC(=O)CCC(F)(F)F)cc2C1=O | -4.3 | 9 | 10 | -2.1
COc1ccc(-c2cc(C(=O)NCc3ccc(C(F)(F)F)cc3)[nH]n2)c(C)c1 | -1.1 | -20* | -1.0* | 3.4*
COc1ccccc1-c1ccccc1[C@@H]1[C@@H](CO)N(C(=O)C2CCOCC2)[C@H]1C#N | -4.0 | 3 | 4 | -0.5
CCCCn1nnnc1C(c1cc2ccccc2o1)N1CCN(C(=O)OC(C)(C)C)CC1 (configuration not stated) | -7.3 | 4 | -3 | 0.6
O=C(c1ccccn1)N1C[C@H]2[C@@H](c3ccccc31)[C@@H](CO)N2C(=O)CC1CC1 | -0.2 | 0 | -3 | -2.2
C[C@@H]1CN([C@@H](C)CO)C(=O)Cc2cc(NC(=O)CCN3CCOCC3)ccc2O[C@@H]1CN(C)S(=O)(=O)c1cn(C)cn1 | -4.4 | 3 | 3 | -3.0
O=C(C[C@H]1C[C@@H]2c3cc(NC(=O)CC4CC4)ccc3O[C@@H]2[C@H](CO)O1)NCc1ccccc1 | -0.8 | 0 | 4 | -3.4
C[C@@H]1CN([C@@H](C)CO)C(=O)Cc2cc(NS(=O)(=O)c3ccc(Cl)cc3)ccc2O[C@H]1CN(C)C | -1.0 | 2 | -4 | 2.8
C[C@H]1CN([C@@H](C)CO)C(=O)c2cccc(NC(=O)Nc3ccc(F)cc3)c2O[C@@H]1CN(C)Cc1ccc(-c2ccccc2)cc1 | 2.8 | -4 | -3 | -1.2
CC(C)C#Cc1cnc2c(c1)C(=O)N([C@@H](C)CO)C[C@H](C)[C@@H](CN(C)Cc1cncnc1)O2 | -2.9 | 4 | 8 | -1.2
Cc1noc(C)c1NC(=O)N(C)C[C@H]1Oc2c(NC(=O)NC(C)C)cccc2C(=O)N([C@H](C)CO)C[C@H]1C | -3.2 | 4 | 9 | -3.5
O=C(C[C@@H]1C[C@@H]2c3cc(NC(=O)CC4CC4)ccc3O[C@@H]2[C@H](CO)O1)NCc1cccnc1 | -0.4 | 2 | 3 | -1.5
O=C(Nc1ccc(N2CCOCC2)cc1)c1csc([C@@H]2O[C@H](CO)[C@H](O)[C@H](O)[C@H]2O)n1 | -6.9 | 8 | 21 | -1.5
C[C@@H]1CN([C@@H](C)CO)C(=O)c2cccc(NC(=O)NC3CCCCC3)c2O[C@@H]1CN(C)Cc1ccc(Cl)c(Cl)c1 | 0.6 | -6 | -3 | 5.2
C[C@@H]1CCCCO[C@H](CN(C)C(=O)Nc2ccc(F)cc2)[C@H](C)CN([C@H](C)CO)C(=O)c2cc(NC(=O)Nc3ccc(F)cc3)ccc2O1 | -0.4 | 3 | 5 | -1.2
CC(=O)N1[C@H](C(=O)NCc2ccccc2Cl)[C@@H](CO)[C@@H]2Cn3c(ccc(-c4ccncc4)c3=O)[C@@H]21 | -3.8 | 4 | 1 | 0.3
CC(C)NC(=O)Nc1ccc2c(c1)C(=O)N([C@H](C)CO)C[C@H](C)[C@H](CN(C)C(=O)Nc1ccc(C(F)(F)F)cc1)O2 | 0.2 | -2 | -1 | 3.2
COc1ccc(NC(=O)Nc2ccc3c(c2)CC(=O)N([C@H](C)CO)C[C@H](C)[C@H](CN(C)Cc2ccc(-c4ccccc4)cc2)O3)cc1 | 2.0 | 2 | -12 | 3.3
COCC#Cc1ccc2c(c1)O[C@@H](CN(C)C(=O)C1CCOCC1)[C@H](C)CN([C@H](C)CO)S2(=O)=O | 0.1 | -1 | 4 | -5.3
CS(=O)(=O)Nc1ccc2c(c1)[C@@H]1C[C@H](CC(=O)NCc3ccc(Oc4ccccc4)cc3)O[C@H](CO)[C@@H]1O2 | -0.1 | -3 | -3 | -2.1
CC(=O)N1[C@H](CO)[C@H](c2ccc(-c3cccnc3)cc2)[C@H]1CNC(=O)C1CCC1 | -10.0 | 1 | 8 | -0.1
C[C@H](CO)N1C[C@H](C)[C@@H](CN(C)C(=O)Cc2cccnc2)Oc2cc(-c3cncnc3)ccc2S1(=O)=O | -8.1 | -1 | 16 | -1.7
O=C(Nc1cccc(F)c1)N1C[C@H]2[C@@H](c3ccccc31)[C@H](CO)N2C(=O)c1ccccn1 | -1.4 | 1 | 3 | -0.8
C[C@H]1CN([C@@H](C)CO)C(=O)CCCn2cc(nn2)CO[C@@H]1CN(C)C(=O)Oc1ccccc1 | 0.3&-2.0&-6.4 | 1&23 | 11&13 | 1.3&-1.5
COc1ccc(NC(=O)C(c2ccncc2)n2c(=O)c(-c3ccco3)nc3ccccc32)cc1 (configuration not stated) | 9.4 | -2 | -1 | 2.8
C[C@@H]1CN([C@H](C)CO)C(=O)c2cc(NS(=O)(=O)c3ccccc3)ccc2O[C@H]1CN(C)S(C)(=O)=O | 0.0 | 2 | 9 | 0.8

Shown with two lines to a compound: part of the list above
The line under a structure holds: AF4-AF9 inh, Ecoli rRNA inh, Ecoli rRNA inh OD600, Ecoli rRNA inh RFP
> C[C@H](CO)N1C[C@H](C)[C@@H](CN(C)C(=O)Cc2cccnc2)Oc2cc(-c3cncnc3)ccc2S1(=O)=O
 : -8.1, -1, 16, -1.7
> O=C(Nc1cccc(F)c1)N1C[C@H]2[C@@H](c3ccccc31)[C@H](CO)N2C(=O)c1ccccn1
 : -1.4, 1, 3, -0.8
> C[C@H]1CN([C@@H](C)CO)C(=O)CCCn2cc(nn2)CO[C@@H]1CN(C)C(=O)Oc1ccccc1
 : 0.3&-2.0&-6.4, 1&23, 11&13, 1.3&-1.5
> COc1ccc(NC(=O)C(c2ccncc2)n2c(=O)c(-c3ccco3)nc3ccccc32)cc1 (configuration not stated)
 : 9.4, -2, -1, 2.8

Next part
SMILES | AF4-AF9 inh | Ecoli rRNA inh | Ecoli rRNA inh OD600 | Ecoli rRNA inh RFP
C[C@@H]1CCCCO[C@@H](CN(C)C(=O)c2ccccc2)[C@H](C)CN([C@@H](C)CO)C(=O)c2cc(NC(=O)Cc3ccccc3)ccc2O1 | -2.8 | -25* | -16* | -5.3*
O=C(C[C@@H]1C[C@H]2c3cc(NS(=O)(=O)c4ccc(F)cc4)ccc3O[C@H]2[C@H](CO)O1)N1CCOCC1 | 0.1 | -1 | -3 | -1.8
Cc1ccc(S(=O)(=O)Nc2ccc3c(c2)C(=O)N([C@@H](C)CO)C[C@H](C)[C@@H](CN(C)C(=O)NC(C)C)OCCCC[C@H](C)O3)cc1 | -13 | -3 | -5 | 5.4
CCCc1cn(CC[C@H]2CC[C@H](NC(=O)CCN3CCCCC3)[C@@H](CO)O2)nn1 | -1.9 | 4 | 7 | -2.0
COc1ccccc1S(=O)(=O)N1C[C@@H]2N[C@H](C1)C2c1ccc(-c2cccc(F)c2)cc1 (some centres not stated) | 2.6&-2.5 | -60&-15 | -78&-7 | -16&5.3
CCCNC(=O)N(C)C[C@H]1Oc2ncc(C#Cc3ccccc3F)cc2C(=O)N([C@@H](C)CO)C[C@@H]1C | 0.8 | -1 | 4 | 3.3
